Screening data from PubChem BioAssay.
BJeLR lethal: BJeLR cell viability loss | inhibition, % (no concentration beside the values) | AID 1554 | 300,000 tested, 0.17% active | BJeLR (HRASV12) viability, CellTiter-Glo ATP luminescence, 48 h; reference of the scale not given here;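 active = replicate mean above 50%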;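 also: 50 nL library stock added to about 25 µL; numbers are from one replicate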
* marks the source's active call; other numbers are inactive results. Some of the compounds tested (hit frequency here may not be typical).

SMILES	BJeLR lethal
COc1ccc(/C=N/NC(=O)c2cccnc2)cc1Cn1nc([N+](=O)[O-])c(Br)c1C	5.3
CCOc1ccc(C2C=C(c3ccccc3)Nc3ncnn32)cc1 (centres undefined)	6.7
COC(=O)[C@@]1(Cc2ccc(F)cc2)[C@H]2c3cc(C(=O)N4CCCC4)n(CCc4ccc(O)c(O)c4)c3C[C@H]2CN1C(=O)c1ccccc1	-3.1
CCOC(=O)C1=C(C)N(CCCC(=O)O)C(=O)NC1c1ccccc1OC(=O)c1cccs1 (centres undefined)	-5.4
Cc1nn(-c2ccccc2)c(Cl)c1/C=N/NC(=O)c1ccc(NS(=O)(=O)c2cccs2)cc1	-1.4
COC(=O)c1c(N2C(=O)[C@H]3[C@@H](C2=O)[C@]2(C(=O)Nc4ccc(C)cc42)N2CCC[C@@H]32)sc(C)c1C	2.7
COC(=O)CCCC1=CC2=CC(=O)C(C)(O)C(=O)C2=CO1 (centres undefined)	6.4
CN(C)c1ccc(/C=N/NC(=O)c2ccc(CN3C(=O)c4cccc5cccc3c45)cc2)cc1	8.4
Cc1nc2ccc(CN(C)c3ccc(C(=O)N[C@@H](CCC(=O)O)C(=O)O)s3)cc2c(=O)[nH]1	71.9*
CC1CCCC(NC(=O)c2cn(C)c3ccc(S(=O)(=O)N4CCCC4)cc3c2=O)C1C (centres undefined)	6.7
O=C(CSc1nc(C2CC2)nc2ccccc12)NCc1ccc2c(c1)OCO2	-2.9
COc1cc(/C=C2\SC(=S)NC2=O)ccc1OS(=O)(=O)c1ccccc1	7.8
CCOC(=O)C1=C(C)N(CCCC(=O)O)C(=O)NC1c1ccc(C(F)(F)F)cc1 (centres undefined)	-7.0
CC(=O)O/N=C/c1c(NCc2ccccc2)nc2c(C)cccn2c1=O	3.6
CN1CCc2nc(SCC(=O)Nc3ccc(F)cc3)c(C#N)cc2C1	-2.1
c1nnc2c3c4c(sc3ncn12)CCCC4	0.4
CC1CCC2C(C1)OS(=O)(=O)NC2(C)C (centres undefined)	3.8
Cc1ccccc1Nc1nc(-c2sc(NC(=O)c3ccc([N+](=O)[O-])cc3)nc2C)cs1	0.3
CC1(O)C(=O)C=C2C=C(c3ccc(C#N)cc3)OC=C2C1=O (centres undefined)	-8.9
CCNC(=S)N/N=C(\C)c1ccc2ccccc2c1	-6.1
C#CCOCCOCCOCCNc1nc(N2CCN(C(=O)Cn3cc(CCCCN)nn3)CC2)nc(N2CCN(C(=O)[C@H](C)n3cc(CCCN=C(N)N)nn3)CC2)n1	7.3
CCCCC1=CC2=CC(=O)C(C)(OC(=O)CCC(=O)OC)C(=O)C2=CO1 (centres undefined)	5.4
C#CCOCCOCCOCCNc1nc(N2CCN(C(=O)C(Cc3ccc(O)cc3)n3cc(C(N)CC(C)C)nn3)CC2)nc(N2CCN(C(=O)C(Cc3cc4ccccc4[nH]3)n3cc(C(N)C(C)CC)nn3)CC2)n1 (centres undefined)	0.7
COc1ccc(-n2c(C)nc3sc4c(c3c2=O)CCCC4)cc1	4.8
FC(F)(F)c1ccc(CN2C[C@@H]3C(c4ccc(Cl)nc4)C4(c5cccnc5)CC3(C4)[C@H]2c2ccccc2)cc1 (some centres undefined)	-4.2
Following part:
SMILES	BJeLR lethal
CC(C)c1ccccc1NC(=O)COc1ccc2c(=O)c(Oc3ccc4ccccc4c3)coc2c1	-6.0
CC(=O)CCCCn1cnc2c1c(=O)n(C)c(=O)n2C	-4.0
COC/C=C/C1=CC2=CC(=O)C(C)(OC(=O)c3cnc4ccccc4n3)C(=O)C2=CN1C1CCCCC1 (centres undefined)	0.4
COc1ccc(/C=N\NC(=O)c2cccc([N+](=O)[O-])c2)cc1Cn1cc([N+](=O)[O-])cn1	-8.5
CS(=O)(=O)/C(C#N)=C\c1cnc(S(=O)(=O)c2ccccc2)s1	20.1
O=S(=O)(NCc1cccs1)c1ccc(Br)s1	-6.5
O=C1NC(=O)N(c2ccccc2)C(=O)/C1=C/c1ccc2c(c1)Cc1ccccc1-2	-8.4
O=[N+]([O-])c1cccc(NC(=S)Nc2nc(-c3ccc(Cl)cc3Cl)cs2)c1	-1.2
COC(=O)c1ccc(/C=N/NC(=O)CCSc2nc3ccccc3s2)cc1	-4.9
COC(=O)c1cccc(C23CC4(C2)[C@H](CN(Cc2ccc(-c5ccccc5)cc2)[C@@H]4c2ccccc2)C3c2ccc(C(F)(F)F)cc2)c1 (some centres undefined)	-4.6
CC(C)(C)OC(=O)NCCCC1=CC2=CC(=O)C(C)(OC(=O)c3ccc(Cl)nc3)C(=O)C2=CO1 (centres undefined)	-2.4
CC1=NN2C(=N)/C(=C\c3cc(C)n(Cc4ccccc4)c3C)C(=O)N=C2S1	-16.2
CC1=C(C#N)c2nc(N)c(C#N)c(C)c2/C1=C\c1ccc(C)cc1	8.1
COc1ccc(C2NC3=C(CCCC3)C(C#N)(C#N)C2(C#N)C#N)cc1 (centres undefined)	2.2
CCOC(=O)N1CCN(C(=O)c2cn(CC)c3cc(N4CCN(C)CC4)c(F)cc3c2=O)CC1	27.8
O=C(NCCNc1ccc2ccccc2c1)c1cccn2c(=O)c3sccc3nc12	7.6
C#CCNC(=O)C1=C[C@H](c2ccc3c(c2)OCO3)C[C@H](OCCCCO)O1	4.7
C/C(=N\NC(=O)C1CC1)c1ccc(NC(=O)c2ccc(Br)o2)cc1	-0.9
C/C(CCN1CCc2nc(-c3ccccc3)c(-c3ccccc3)cc2C1)=N\O[C@@H](C)c1cn([C@H](CO)Cc2ccccc2)nn1	4.9
Cc1cc(=O)[nH]c(N/N=C/c2cccc([N+](=O)[O-])c2)n1	5.3
CCOCCCn1c(=N)c(C(=O)NCc2ccc3c(c2)OCO3)cc2c(=O)n3ccccc3nc21	4.6
C=CCN1/C(=C2/SC(=S)N(C)C2=O)Sc2ccccc21	-6.1
CCn1c(=O)c(C(=O)Nc2ccsc2C(=O)OC)c(O)c2ccccc21	-1.1
CC1=C(C#N)C(=O)N(C2CCS(=O)(=O)C2)C(=O)/C1=C\c1ccc(C)o1 (centres undefined)	5.4
CC1=NN(C(N)=S)C(=O)C1N=Nc1cccc2ccccc12 (centres undefined)	6.5

3 records drawn at random from those above:
SMILES	BJeLR lethal
O=C(NCCNc1ccc2ccccc2c1)c1cccn2c(=O)c3sccc3nc12	7.6
CC(C)c1ccccc1NC(=O)COc1ccc2c(=O)c(Oc3ccc4ccccc4c3)coc2c1	-6.0
C=CCN1/C(=C2/SC(=S)N(C)C2=O)Sc2ccccc21	-6.1

Other results
SMILES	BJeLR lethal
C[C@H](NC(CCc1ccccc1)C(=O)O)C(=O)N1CCC[C@H]1C(=O)O (some centres undefined)	4.7
COc1cccc(C2C3=C(N=c4s/c(=C\c5ccccc5O)c(=O)n42)c2ccccc2CC3)c1OC (centres undefined)	0.9
N#Cc1cc([N+](=O)[O-])ccc1NC(=O)COC(=O)CCC1CCCCC1	-1.6
CCOC(=O)CC(NC(=O)Cn1nnc(-c2ccccc2C)n1)c1ccc(OC)cc1 (centres undefined)	-3.7
Cc1c(C(=O)O)c(C(=O)O)nc2ccc(N3CCOCC3)cc12	3.7
CCCN1CCC[C@@H]2Cc3nc(N)ncc3C[C@H]21	11.9
COc1cccc(CN2C(=O)C3CCCN3c3ccc(S(=O)(=O)N4CCOCC4)cc32)c1 (centres undefined)	7.8
COC(=O)c1cccc(C23CC4(C2)[C@H](CN(Cc2ccc(C(F)(F)F)cc2)[C@@H]4c2ccccc2)C3c2ccc(C(F)(F)F)cc2)c1 (some centres undefined)	4.4
CCOC(=O)c1ccc(NC(=S)Nc2ccccc2N)cc1	8.5
CNC(=O)c1c(N)sc2c1CCCCC2	10.9
O=C1CSC(=S)N1/N=C/c1ccc(Cl)c([N+](=O)[O-])c1	-1.2
NC(CCCCc1ccccc1)c1cccc2ccccc12 (centres undefined)	-7.6
Cc1ccc(CN2C(=O)C3CCCN3c3ccc(C#N)cc32)cc1 (centres undefined)	-5.1
CC#CCN1c2ccccc2[C@]23C[C@@H](C(=O)OC)N(C(=O)c4ccc(Br)cc4)C2=NC(C(=O)OC)=C(C(=O)OC)[C@H]13	-1.4
Oc1ccc(C=Nc2ccc3ncccc3c2)c(O)c1	-0.3
CCN1CCc2c(sc(NC(=S)NC(=O)c3ccco3)c2C(N)=O)C1	-4.4
CN(C)CCN1C(=O)C(O)=C(C(=O)c2cc3ccccc3o2)C1c1ccccn1 (centres undefined)	3.1
CC(C)C[C@H](NC(=O)[C@@H](O)[C@H](N)Cc1ccccc1)C(=O)O	11.0
CCC1(C)OCC(Cn2c3ccccc3c3ccccc32)O1 (centres undefined)	-0.1
CN1CCc2c(C#N)c(N3CCCCC3)nc(N3CCOCC3)c2C1	-5.5
Cc1noc(/C=C/N(C)C)c1S(=O)(=O)N1CCCC(C(=O)NCc2ccc(F)cc2)C1 (centres undefined)	3.1
Cc1ccc(C)c(Cc2c(C)nc3c(C(=O)NCc4ccc5c(c4)OCO5)cnn3c2C)c1	-2.1
O=c1[nH]c(=S)[nH]c(O)c1N=Nc1ccc(-c2ccccc2)cc1[N+](=O)[O-]	2.4
CN(C)c1ccc(/C=c2\sc3nc(-c4ccccc4)nn3c2=O)cc1	-3.0
O=C1C=C(NCCN2CCOCC2)C(=O)c2cnccc21	8.2

Reprinted from the part before: 3 entries, then new ones.
SMILES	BJeLR lethal
O=c1[nH]c(=S)[nH]c(O)c1N=Nc1ccc(-c2ccccc2)cc1[N+](=O)[O-]	2.4
CN(C)c1ccc(/C=c2\sc3nc(-c4ccccc4)nn3c2=O)cc1	-3.0
O=C1C=C(NCCN2CCOCC2)C(=O)c2cnccc21	8.2
Cc1cc(C(=O)CSc2nc3ccccc3c(=O)n2C)c(C)n1CC1CCCO1 (centres undefined)	-12.3
CCCCCCN(C(=O)CCCCCN1C(=O)NC(c2ccc([N+](=O)[O-])cc2)C(C(=O)OCc2ccccc2)=C1C)C(C(=O)NCCCC)c1ccc(OCC(=O)OC)c(C(=O)OC)c1 (centres undefined)	7.2
O=C1c2cccc3cccc(c23)C(=O)N1CCN1CCN(C(=S)Nc2ccc(F)cc2)CC1	-25.2
Cc1ccc(C2/C(=C(/O)c3cnn(-c4ccccc4)c3C)C(=O)C(=O)N2CCCN2CCOCC2)o1 (centres undefined)	-3.8
COc1ccc(-c2csc(NC(=O)COC(=O)c3ccc(Br)o3)n2)cc1	2.3
O=[N+]([O-])c1ccc(-n2cccc2/C=N/Nc2nc(N3CCCCC3)nc(N3CCCCC3)n2)cc1	1.9
COC(=O)N[C@H](CC(C)=O)c1ccccc1	11.4
COc1ccc(C2C=C(c3ccc(Br)cc3)Nc3nc(NS(C)(=O)=O)nn32)cc1 (centres undefined)	3.3
CC1(N2CCOCC2)CC2(O)C(=[N+]1[O-])CCc1nonc12 (centres undefined)	2.5
C/C(=N\n1nnnc1Nc1ccccc1)c1ccc(N)cc1	-2.1
CC1CCC(NC(=O)CN2C(=O)C3CCCN3c3ncc(Cl)cc32)CC1 (centres undefined)	3.5
COC(=O)CCC(=O)OC1(C)C(=O)C2=CN(Cc3ccco3)C(c3ccc(OC)cc3)=CC2=C(Br)C1=O (centres undefined)	-7.5
O=C(NCCc1ccc(F)cc1)c1cc(-c2ccncc2)nc2ccccc12	-0.1
O=C(N/N=C/c1ccc(N2CCCCC2)o1)C(O)(c1ccccc1)c1ccccc1	-0.1
Cc1ccc(C)n1-c1ccccc1N	-2.5
CCOC(=O)C(CSCC(=O)c1ccc(Br)cc1)NC(=O)OC(C)(C)C (centres undefined)	-1.8
C=CCn1c(SCC(=O)Nc2ccccc2OC)nnc1-c1ccco1	-6.4
Cc1[nH]c2ccccc2c1/C=N/Nc1ccccn1	0.5
CC(C)(O)c1[nH]c2ccc(C#N)cc2c1C(C)(C)O	4.0
C[C@]12CC[C@H](O)CC1=CC[C@@H]1[C@@H]2CC[C@@]2(C)[C@H]1CC[C@]2(C)O	-3.6
Cc1ccc(Nc2nc(-c3sc(NC(=O)c4cccc(Cl)c4)nc3C)cs2)cc1	-7.6
C/C(=N\Nc1ccc(S(=O)(=O)Nc2ccccc2)cc1[N+](=O)[O-])c1ccncc1	1.3
CNC(=O)COC(=O)c1ccc2c(c1)NC(=O)C1CCCN21 (centres undefined)	-7.2
CCC1=NN2C(=N)/C(=C\c3ccc(OCCOc4ccccc4)c(OC)c3)C(=O)N=C2S1	-2.5
O=C(Nc1ccccc1)n1ccc(-c2ccc(-n3ccnc3)cc2)n1	4.9
Following part:
SMILES	BJeLR lethal
Oc1ccc(O)c2c1C1c3ccccc3C2c2ccccc21	-12.1
Oc1c(C=Nc2cccc3cccnc23)sc2ccccc12	9.0
O=S(=O)(Nc1ncccn1)c1ccc(NC(=S)Nc2cccc(Cl)c2)cc1	0.6
CCOC(=O)[C@@H]1[C@H]2COc3ccc(Br)cc3[C@H]2N2C(=O)N(c3ccc(Cl)cc3)C(=O)[C@@]12C	-7.5
S=c1[nH]nc(-c2ccco2)n1/N=C/c1ccccn1	8.7
CC(C)(C)N1CCC1C(N)=O (centres undefined)	5.1
CC(C)OCCCNC(=O)C(=O)N/N=C/c1ccc(OCc2ccccc2)cc1	-4.2
Cc1ccccc1CC1S/C(=N/N=C/c2ccco2)NC1=O (centres undefined)	0.5
Nc1nonc1C(=O)N/N=C/c1ccc(-c2cccc(C(=O)O)c2)o1	-0.1
COc1ccc2nc(NC(=O)/C=C/c3ccc4c(c3)OCO4)sc2c1	-4.2
COc1cccc(C2C3=C(N=c4s/c(=C\c5ccc(OCC(=O)O)cc5)c(=O)n42)c2ccccc2CC3)c1 (centres undefined)	-16.4

Some of the entries above, set out differently:
Oc1ccc(O)c2c1C1c3ccccc3C2c2ccccc21
  BJeLR lethal = -12.1
Oc1c(C=Nc2cccc3cccnc23)sc2ccccc12
  BJeLR lethal = 9.0
O=S(=O)(Nc1ncccn1)c1ccc(NC(=S)Nc2cccc(Cl)c2)cc1
  BJeLR lethal = 0.6
CCOC(=O)[C@@H]1[C@H]2COc3ccc(Br)cc3[C@H]2N2C(=O)N(c3ccc(Cl)cc3)C(=O)[C@@]12C
  BJeLR lethal = -7.5
